# ALR inh: inhibitors of human sulfhydryl oxidase ALR. inhibition, % (concentration not given with the values). P55789. purified ALR, DTT oxidation, H2O2 HRP-luminol luminescence. 290,000 compounds, 3.8% hits;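 active = mean and each replicate at 75% or more; inconclusive = only one of the two met; inactive = neither met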;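 also: stock transfer was 7.5 nL into about 7.5 µL; 0% = neutral wells and 100% = wells with inactivated enzyme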
# Target sequence (P55789 whole entry, looked up): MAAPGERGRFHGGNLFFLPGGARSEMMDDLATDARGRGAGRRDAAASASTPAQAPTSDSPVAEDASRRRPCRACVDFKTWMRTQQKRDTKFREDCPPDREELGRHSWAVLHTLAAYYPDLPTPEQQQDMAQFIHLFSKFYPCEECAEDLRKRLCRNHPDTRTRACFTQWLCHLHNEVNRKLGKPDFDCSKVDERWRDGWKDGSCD
# Beta apoptosis: blocks beta cell apoptosis | INS-1E cytokine-induced death, ATP luminescence, 48 h; percent of positive-control rescue, neutral wells zero | protection from apoptosis, % (no concentration beside the values) | 300,000 compounds, 0.8% hits | AID 435005;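 active = all replicates at 75% or more, or half of them and the mean; inconclusive = half reach 75% but not the mean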;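 also: 0% = cytokine-treated negative control wells and 100% = positive control rescue; higher means more ATP so stronger rescue from cytokine killing; wells of about 40 µL received 100 nL stock; the first replicate is given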
# Calb FLC: affects C. albicans growth with fluconazole; C. albicans CaCi-2 (fluconazole-resistant clinical isolate) + fluconazole, Alamar Blue growth, 48 h; 300,000 compounds, 0.57% hits; growth inhibition, % (no concentration beside the values);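 active = most replicates above 75%; inconclusive = exactly half above 75%; inactive = most below 75%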;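 also: all wells also contain fluconazole at 8 µg/ml as a sub-toxic cotreatment; 0% = median of DMSO wells and 100% = median of geldanamycin control wells; wells of about 8 µL received 7.5 nL stock; the first replicate is given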
# Ecoli rRNA inh: inhibits bacterial ribosomal RNA function over humanized ribosomes | GFP signal change (wild-type ribosome), % (no concentration beside the values) | AID 720706 | 350,000 compounds, 1.6% hits | E. coli WT GFP vs humanized-ribosome RFP mutants, fluorescence, 24 h; hits give low values; DMSO median 0, no signal -100;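 active = significant combined selectivity score with lowered wild-type GFP, culture density cut under 30%, mutant RFP and density less affected; inactive = any of these conditions unmet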; also: one replicate is shown; some compounds called inactive have numbers as strong as hits
# RanGTP-Impb inh: disruptors of Ran-importin-beta complex formation – biochemical, FRET, CFP-Ran, YFP-importin-beta, homogeneous, primary screen. inhibition, % (no concentration beside the values). cell-free CFP-Ran/YFP-importin-beta FRET ratio. AID 2216. 300,000 compounds, 1.1% hits;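 active = most replicates above 15%; inconclusive = exactly half above 15%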;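 also: 0% = DMSO wells and 100% = Ran loaded with GDP instead of GTP; wells of about 40 µL received 100 nL stock; the first replicate is given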
# T cruzi inh: blocks replication of Trypanosoma cruzi. T. cruzi beta-gal in NIH3T3, luminescence, 90 h. inhibition, % (test concentration not listed). 300,000 compounds, 1.4% hits;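 active = mean inhibition across valid replicates above about 55%, limit read from the data; inconclusive = mean below that limit but half or more replicates reach it; inactive = mean below it, under half of replicates reach it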;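 also: signal also drops with host cell toxicity which is not excluded here; 0% = plate median of DMSO wells and 100% = zero luminescence signal; higher percent means less beta-gal luminescence so fewer parasites; stock transfer was 50 nL into about 50 µL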
# FGF22 binding: binders of recombinant human FGF22 by thermal shift. AID 651658. SYPRO orange fluorescence; percent of sucrose octasulfate shift, DMSO zero. Q9HCT0. 340,000 compounds, 1.5% hits. calls only at 9.99 µM;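 active = melting point raised past a set limit in the mean and every replicate; inconclusive = no clear call; three in four hits are not shown here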
# Target sequence (Q9HCT0 whole entry, looked up): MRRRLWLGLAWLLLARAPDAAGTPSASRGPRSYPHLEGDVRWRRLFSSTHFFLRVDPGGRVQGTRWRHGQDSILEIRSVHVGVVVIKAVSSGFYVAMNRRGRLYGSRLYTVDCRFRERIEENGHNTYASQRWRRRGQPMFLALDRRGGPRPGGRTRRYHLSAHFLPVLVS
# MLL AF4-AF9 inh: blocks AF4 peptide binding to human AF9. AID 651704. AlphaScreen, biotin-AF4 peptide binding to FLAG-AF9. 350,000 compounds, 0.47% hits. P42568. inhibition, % at 10 µM;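 active = every replicate reaching a set inhibition limit, whatever the replicate mean, cut at about 25% in these data; inconclusive = mean inhibition reaches that limit but some replicates miss it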;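 also: 0% = plate neutral control median and 100% = total signal loss; the record names both 10 and 1 µM as test concentration; the first replicate is given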
# Target sequence (P42568 whole entry, looked up): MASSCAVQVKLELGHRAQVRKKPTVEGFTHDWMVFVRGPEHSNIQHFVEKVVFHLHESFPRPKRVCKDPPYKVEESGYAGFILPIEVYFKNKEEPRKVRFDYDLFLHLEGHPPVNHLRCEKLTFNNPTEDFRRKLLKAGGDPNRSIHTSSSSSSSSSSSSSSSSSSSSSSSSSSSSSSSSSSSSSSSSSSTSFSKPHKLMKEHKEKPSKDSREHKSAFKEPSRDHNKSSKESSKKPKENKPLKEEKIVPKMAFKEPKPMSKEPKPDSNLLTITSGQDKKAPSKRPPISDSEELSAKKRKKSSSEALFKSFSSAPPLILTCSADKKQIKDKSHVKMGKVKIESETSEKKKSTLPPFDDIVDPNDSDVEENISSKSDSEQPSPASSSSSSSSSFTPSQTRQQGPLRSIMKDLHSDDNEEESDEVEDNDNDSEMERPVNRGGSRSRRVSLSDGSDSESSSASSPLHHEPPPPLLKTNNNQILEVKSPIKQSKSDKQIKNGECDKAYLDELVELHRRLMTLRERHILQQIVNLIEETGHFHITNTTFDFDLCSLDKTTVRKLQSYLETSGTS
# Ecoli rRNA inh OD600: also measured in Ecoli rRNA inh; calls as there; OD600 change, %; measured here: OD600 growth;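 optical density of the mix in the first replicate; 0 = DMSO median and -100 = no signal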
# Ecoli rRNA inh RFP: also measured in Ecoli rRNA inh; calls as there; RFP signal change, %; measured here: RFP humanized mutant strains;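 first replicate; 0 = DMSO median and -100 = no signal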
# Active calls of the source: *; i = inactive; ? = inconclusive; nt = no result given; & = joins results of further samples. Not all compounds are listed; the hit share may differ from the screen's.
SMILES,ALR inh,Beta apoptosis,Calb FLC,Ecoli rRNA inh,Ecoli rRNA inh OD600,Ecoli rRNA inh RFP,RanGTP-Impb inh,T cruzi inh,FGF22 binding,MLL AF4-AF9 inh
CCCCn1c(N)c(N(CC(C)C)C(=O)c2ccc(-c3ccc(Cl)cc3)o2)c(=O)[nH]c1=O,8,17,nt,1,1,1.1,nt,nt,i,-0.9
CCn1nc(C(=O)NNC(=O)C2CSC3(C)CCC(=O)N23)c2ccccc2c1=O (stereo not drawn),-1,0,nt,3,9,-2.2,nt,nt,i,-3.0
COc1cccc(OC)c1NC(=O)C1CCCN1C(=O)Nc1ccccc1Cl (stereo not drawn),nt,nt,-2,10,8,-0.8,0.3,2,i,-2.1
NS(=O)(=O)c1ccc(CCNC(=O)CCCCCNc2nc(=S)[nH]c3ccccc23)cc1,-2,-5,-10,-22*,-11*,1.1*,5.3,-6,i,3.8
COc1ccc(/C=C(\NC(=O)c2ccccc2)C(=O)N2CCN(C)CC2)cc1OC,2,0,3,6,12,-0.3,-0.4,-7,i,-2.3
Cc1noc(C)c1C(=O)Nc1ccc2c(c1)CCC2,-45,5,-20,nt,nt,nt,-4.5,2,nt,nt
CCOc1ccc(NC(=O)C2CCN(S(=O)(=O)c3ccc4c(c3)C(C)(C)C(=O)N4C)CC2)cc1,1,-1,0,16,20,1.6,-1.5,0,i,-3.6
Cn1nc(C(=O)NNC(=O)c2cccc(Cl)c2)c2ccccc2c1=O,11,1,nt,nt,nt,nt,nt,nt,i,-2.1
Cc1c(OC(C)C(=O)NCC(O)c2ccccc2)ccc2c3c(c(=O)oc12)CCC3 (stereo not drawn),6,10,30,-12,-22,-0.6,6.4,6,i,2.5
CCOC(=O)C1=C(CN2CCN(C(=O)c3ccco3)CC2)NC(=O)NC1c1ccc(F)cc1 (stereo not drawn),-6,-4,15,-4,-8,1.7,-5.3,5,i,-1.7
COc1ccccc1CNc1ccccc1F,16,-3,-4,1,-2,-9.6,-0.7,-12,nt,0.1
COCC(=O)NCCc1nc2ccccc2[nH]1,-12,-8,-9,12,17,6.7,-4.9,-5,i,-11
CC1(C)O[C@@H]2C[C@H]3[C@@H]4CCC5=CC(=O)CC[C@]5(C)[C@@]4(F)[C@@H](O)C[C@]3(C)[C@]2(C(=O)CCl)O1,19,-1,nt,nt,nt,nt,nt,nt,i,-2.2
O=C(Nc1cc(Cl)cc(Cl)c1)c1ccno1,nt,nt,-10,-9,-14,3.1,-4.1,-8,i,-2.9
N#Cc1ccc(OC(=O)C2CCN(C3=NS(=O)(=O)c4ccccc43)CC2)cc1,nt,-3,nt,4,8,-5.5,nt,nt,i,-1.3
COc1ccc(N2CC(C(=O)N3CCc4ccccc43)CC2=O)cc1 (stereo not drawn),nt,-7,4,12,10,1.0,-0.3,-9,i,-1.6
Cc1ccn(CC(=O)N2CCCC(N3CCN(Cc4ccc5c(c4)OCO5)CC3)C2)n1 (stereo not drawn),-9,-6,2,7,7,0.0,0.3,9,i,-1.2
O=C(C1CCN(c2ncnc3c2sc2cccc(F)c23)CC1)N1CCCC1,-21,8,1,-27,-36,-3.7,3.1,23,i,nt
O=C(CCCN1C(=O)/C(=C\c2ccco2)SC1=S)Nc1cccc2ccccc12,-1,nt,-37,-3,2,32,4.5,-4,i,-14
CCOC(=O)[C@H]1O[C@@H]1C(=O)N[C@@H](CC(C)C)C(=O)NCCC(C)C,86*,2,nt,nt,nt,nt,8.3,32,nt,-3.0
CC(C)CN(C(=O)CCC(=O)OCc1ccc(Cl)cc1Cl)c1c(N)n(CC(C)C)c(=O)[nH]c1=O,-5,2,6,11,9,3.1,-1.9,-7,i,0.2
CN(Cc1cnn(C)c1)C(=O)c1cc2ccccc2oc1=O,-4,-6,-1,nt,nt,nt,2.1,2,nt,nt
CCC1(c2ccc(F)cc2)NC(=O)N(CC(=O)NC2CCCC(C)C2C)C1=O (stereo not drawn),-3,-2,nt,-12,-9,3.0,nt,nt,i,1.0
CN1CCN(C(=S)NCCc2ccccc2)CC1,-1,-8,-6,20,8,2.3,0.8,9,i,-1.8
COc1ccc(CNC(=O)C(C)N(C)Cc2cccc(F)c2)cc1 (stereo not drawn),-10,-2,-2,0,-8,-1.2,2.9,-3,i,-2.9
CCCCCCCCCCOC(=O)Cn1c(COc2ccc(C)cc2)[n+](C)c2ccccc21,-8,112*,66,-46,-73,-9.2,3.3,46,i,17
CC(=O)C1=C(O)C(=O)N(c2ccc(S(=O)(=O)Nc3nccs3)cc2)C1c1ccc([N+](=O)[O-])cc1 (stereo not drawn),9,-3,-6,10,16,2.8,6.7,-5,i,-0.6
COc1ccc(C2C(C(=O)NCCN(C)C)c3ccccc3C(=O)N2C)cc1OC (stereo not drawn),-7,nt,-3,nt,nt,nt,-0.4,-15,nt,nt
Cc1ccc(C=C2C(Cl)=C(Cl)C(Cl)=C2Cl)cc1,14,4,-6,nt,nt,nt,-2.3,-24,nt,nt
CCOc1ccc(N=C/C=C/c2ccccc2)c(O)c1,-42,0,-18,5,7,17,-23,1,i,2.0
Cc1ccc(/C=N/n2c(-c3ccncc3)n[nH]c2=S)o1,24,-2,-11,14,11,-2.4,6.5,-13,i,-3.1
COc1ccc(-c2csc3ncnc(Nc4ccc(O)cc4)c23)cc1,-5,-6,7,-9,-8,5.0,8.5,6,i,2.7
C#CCOCCOCCOCCNc1nc(N2CCN(C(=O)Cn3cc(CCCN=C(N)N)nn3)CC2)nc(N2CCN(C(=O)[C@H](C)n3cc(CCCN=C(N)N)nn3)CC2)n1,nt,-7,nt,6,8,-3.0,nt,nt,i,11
CC(OC(=O)[C@@H](NC(=O)c1ccco1)C(C)C)C(=O)Nc1ncc(Cl)cc1Cl (stereo partly drawn),0,-1,nt,0,6,-1.6,nt,nt,i,-5.1
COc1ccc(C(=O)C2CCCN(Cc3cn(C)nc3-c3ccccc3)C2)cc1F (stereo not drawn),17,0,-13,0,-4,2.4,3.5,9,i,3.6
CCOC(=O)CNC(=O)Cn1cnc2c(oc3ccccc32)c1=O,nt,-5,?,7,11,-1.9,?,-11,i,0.1
Cc1cccc(CCNC(=O)C2CCCN(S(=O)(=O)c3cnc[nH]3)C2)c1 (stereo not drawn),68,nt,2,4,2,-2.8,7.2,-5,i,10
Cc1ccc(OCCC(=O)OCC(=O)NC2CCS(=O)(=O)C2)cc1 (stereo not drawn),1,1,6,5,14,-1.1,-0.2,-14,i,-0.6
CCCn1c(SCC(=O)Nc2sc(C)c(C)c2C#N)nnc1C(C)C,30,0,-6,nt,nt,nt,-2.6,9,nt,nt
NC1=NC2(CCCCC2)N(c2ccc(F)cc2)C(N)=N1,-7,-13,0,nt,nt,nt,2.9,-1,nt,nt
C=CCOc1ccc(C2NC(=O)c3ccccc3O2)cc1 (stereo not drawn),-4,-2,-1,9,10,0.5,0.6,-2,i,1.5
Cc1cc(F)c(F)c(C(=O)N2CCN(C)CC2)c1Cl,0,-4,-7,nt,nt,nt,2.0,-2,nt,nt
C=CCn1c(CNS(=O)(=O)c2ccc(Br)cc2)n[nH]c1=S,70,1,-8,0,4,-2.9,-0.8,-3,i,-4.9
C=CCN(c1ccccc1)S(=O)(=O)c1cccc(C(=O)NNC(=O)c2ccncc2)c1,nt,-9,3,-6,-4,0.3,-3.3,-4,i,0.1
COc1cccc(CNC(=O)Cn2nc([N+](=O)[O-])c(Br)c2C)c1,-4,-5,-1,19,13,4.6,-1.0,-4,i,-13
CCOC(=O)c1cnc(COc2ccc(OC)cc2)[nH]c1=O,2,10,4,nt,nt,nt,1.0,-9,i,1.4
COc1ccc(CNC(=O)CCCn2nc(C)c([N+](=O)[O-])c2C)cc1,-21,-3,-23,nt,nt,nt,?,-3,nt,nt
CN1C(=O)NC(c2ccc([N+](=O)[O-])cc2)C2=C1CC(C)(C)CC2=O (stereo not drawn),-8,3,-2,6,8,0.5,-1.5,-2,i,-0.9
Cc1ccc(C(C(=O)Nc2ccc3c(c2)OCO3)N(C)C(=O)Cc2c[nH]c3ccccc23)cc1 (stereo not drawn),-27,4,20,nt,nt,nt,-1.6,34,nt,nt
Cc1nc(-c2ccc(NC(=O)C3CCCCC3)cc2)cs1,-6,2,5,nt,nt,nt,?,10,nt,nt
CCC(C(=O)O)N1C(=O)c2ccccc2C1=O (stereo not drawn),-14,-4,-4,nt,nt,nt,3.7,-9,nt,nt
CCOc1ccc(C(c2c(O)nc(SC)n(C)c2=O)c2c(O)nc(SC)n(C)c2=O)cc1,98*,-7,-8,nt,nt,nt,?,6,nt,nt
O=C(c1cccs1)N1CCN(S(=O)(=O)c2ccc(F)cc2)CC1,-1,3,-24,15,5,0.8,2.1,-15,i,-0.5
CCC(C)C(NC(=O)c1ccccc1NC(=O)c1ccco1)C(=O)NNC(=O)c1ccncc1 (stereo not drawn),0,-3,2,11,5,2.6,3.2,11,i,nt
COc1ccccc1NC(=O)c1ccc(S(=O)(=O)NCc2ccco2)cc1,0,-7,10,2,8,-1.0,0.9,-11,i,2.4
Cc1ccc2nsnc2c1S(=O)(=O)NCc1cccnc1,-2,0,?,nt,nt,nt,-1.2,-7,nt,nt
O=C(Nc1cc(SCCO)cc([N+](=O)[O-])c1)c1ccco1,-3,4,-8,nt,nt,nt,-0.3,-10,nt,nt
O=C(NC1CCCCCCC1)c1cc(COc2ccc3ncccc3c2)on1,nt,nt,2,nt,nt,nt,2.9,14,i,0.2
CC(C)c1ccc(C(=O)NCCCN(C)C)cc1,-5,-2,-5,nt,nt,nt,-3.7,60*,nt,nt
O=C(NNS(=O)(=O)c1ccccc1)C1CC(c2cccnc2)=NO1 (stereo not drawn),10,nt,-2,8,7,-0.4,-2.3,-6,nt,0.9
# New compounds follow.
SMILES,ALR inh,Beta apoptosis,Calb FLC,Ecoli rRNA inh,Ecoli rRNA inh OD600,Ecoli rRNA inh RFP,RanGTP-Impb inh,T cruzi inh,FGF22 binding,MLL AF4-AF9 inh
COc1ccc(C(C(=O)NC2CCCC2)N(CCO)C(=O)Cn2nnc(-c3ccc(C)o3)n2)cc1OC (stereo not drawn),-2,0,14,5,8,-1.9,-12,4,i,3.5
C[C@H](CO)N1C[C@H](C)[C@H](CN(C)Cc2ccccc2)Oc2ccc(NC(=O)Nc3ccc(F)cc3)cc2C1=O,-3,7,nt,3&-1,-9&-14,-2.3&16,nt,nt,i,3.3&9.3
CCCCCC(=O)Nc1nc(C)c(-c2csc(Nc3cc(Cl)ccc3OC)n2)s1,5,-4,-3,2,9,-3.0,3.6,-2,i,3.3
O=C(CCC(=O)N(CC(=O)NC1CCCCC1)c1ccccc1F)Nc1nccs1,-10,-3,-2,8,5,-2.2,1.5,-1,i,-0.6
Cc1ccc(-n2c(-c3ccccc3)cc(/C=N/NC(=O)CC#N)c2-c2ccccc2)cc1,-2,123*,-9,15,19,-7.8,2.4,65*,i,-2.4

# Source: PubChem BioAssay (Broad Institute)
